HIV TAR-Tat = TAR RNA-Tat peptide displacers, HIV-1, primary screen, biochemical, FRET, FAM/TAMRA-labeled Tat. HIV-1 TAR RNA, Tat peptide displacement FRET; active compounds read high. z-score (no concentration beside the values). 100,000 tested, 0.6% active. AID 1259389, 2018;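 also: score is relative to mean and SD of negative controls; some compounds called inactive have numbers as strong as hits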
CDC25B CDK2 inh = primary biochemical HTRF screen for blockers of M-phase inducer phosphatase 2 binding to CDK2/cyclin A; AID 1259370, 2018; P30305+P24941; z-score (test concentration not listed); HTRF CDC25B-CDK2/CyclinA binding, anti-His/anti-Flag; active compounds read high; 94,000 tested, 0.72% active;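 also: score is relative to mean and SD of negative controls; strong numbers were not always called active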
The depositor's hits bear a star; / = no result given.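 The calls were made as follows: active = z-score from 3 up in half or more of its runs; inactive = the rest.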

SMILES	HIV TAR-Tat	CDC25B CDK2 inh
O=c1[nH]c2ccc(NS(=O)(=O)c3ccc(Cl)cc3)cc2o1	-1.1	/
O=C(CCCN1C(=O)c2cccnc2Sc2ccccc21)NCc1ccccn1	0.45	/
NC(=O)c1sc2nc(N3CCOCC3)c3c(c2c1N)CCCC3	0.86	-1.4
CC(=O)N1c2ccc(S(=O)(=O)N3CCCC3)cc2CC1C(=O)N1CCN(C)CC1 (stereo not drawn)	2.3	/
COCC(C)NC(=O)c1c(O)nc2c(C)cccn2c1=O (stereo not drawn)	1.8	-1.4
O=C(C1CCCN1c1nnc(N2CCCC2=O)s1)N1CCc2ccccc2C1 (stereo not drawn)	1.6	0.3
Cc1cccc(N2C(=O)[C@@H]3CSC(c4ccc(Cl)cc4)N3C2=O)c1 (stereo partly drawn)	1	-2.6
COc1cccc(/C=C/c2nc(C#N)c(N3CCCC3)o2)c1	-0.38	-1.6
O=C(O)CCCSc1nc2ccccc2s1	/	-2
O=C1c2ccccc2C(=O)C1(Nc1ccc(F)cc1)c1ccccc1	1.1	-0.43
CCOc1ccccc1C1C(C(=O)OC)=C(C)NC2=C1C(=O)c1ccccc12 (stereo not drawn)	-0.39	0.01
Cc1ccc(C)c(NS(=O)(=O)c2cc(-c3csc(C)n3)ccc2C)c1	2.1	/
CCc1ccc(C(C)(O)C(CN2CCOCC2)c2ccc(Cl)cc2)cc1 (stereo not drawn)	0.37	-0.16
Fc1ccc(CN2CCN(c3ccccn3)CC2)cc1	2.3	2.2
Cc1nn(CC(=O)N2CCC(C)CC2)c(=O)c2cccn12	0.16	-0.83
Cc1c(C(=O)NC2CCCC2)oc2ccc3c(c12)C(=O)CC(C)(C)O3	/	-0.07
COc1ccc(N2CCN(S(=O)(=O)c3c(C)noc3/C=C/N(C)C)CC2)cc1	0.8	/
O=C(CSc1ncnc2ccccc12)Nc1nccs1	/	-3.1
CCOC(=O)CSc1ccc2nnc(-c3ccc(F)cc3)n2n1	/	-2.1
COCCN(Cc1cccs1)S(=O)(=O)c1ccc2c(c1)NC(=O)CCS2	0.66	/
CCN(C(=O)c1cc2c(=O)n3ccccc3nc2s1)C1CCCCC1	/	-0.57
Cc1ccc(OCc2nc(C#N)c(N3CC(C)CC(C)C3)o2)cc1 (stereo not drawn)	0.61	0.55
CCC1(CC)Cc2ccccc2C(NC(=O)Nc2ccccc2OC)=C1C#N	1.4	0.5
CCCCCc1nnc(NC(=O)Cc2csc(C)n2)s1	-0.38	-0.85
c1ccc(N2CCN(c3nc4ccccc4n4cnnc34)CC2)nc1	-0.8	0.39

The results go on:
SMILES	HIV TAR-Tat	CDC25B CDK2 inh
Cc1cc(S(=O)(=O)NCc2nn(-c3ccccc3)nc2C)c(C)s1	/	-2
Cc1cc(C(=O)N2N=C3CCCCCC3C2(O)C(F)(F)F)ccc1Cl (stereo not drawn)	/	-0.4
COc1ccc(OC)c(S(=O)(=O)N2CCN(c3cc(N4CCCC4)nc(C)n3)CC2)c1	-1	1.3
Fc1cc(Br)ccc1Nc1nc2ccccc2c2nncn12	2.6	-2.8
Cn1cnc(S(=O)(=O)Nc2cccc3c2CCCC3)c1	1.7	/
O=C(CC1(O)C(=O)N(Cc2ccccc2)c2ccc(Br)cc21)c1ccc(F)cc1 (stereo not drawn)	/	1.3
COc1cccc(Nc2ncnc3onc(-c4cc(F)cc(F)c4)c23)c1	1.4	/
O=C(Cn1cnc2nc3c(cc2c1=O)CCCC3)Nc1ccccn1	0.35	-0.06
O=C(C1=Cc2ccccc2OC=C1)N1CCc2ccccc2C1	-1.8	-0.71
COc1ccccc1N1CCN(c2nn3cnnc3c3ccccc23)CC1	-1.4	-1.5
Cn1c(=O)c2c(SCC(=O)N3CCCc4ccccc43)nc(-c3ccco3)nc2n(C)c1=O	/	-0.25
O=C(NCc1ccc2c(c1)OCO2)C1=NS(=O)(=O)c2ccccc2N1	-0.23	/
CC(C)Cn1cc(NC(=O)Nc2ccc(F)c(Cl)c2)c2ccccc2c1=O	0.73	/
COc1nc(C)ccc1-c1noc(-c2ccccn2)n1	0.89	0.14
O=C(CSc1nc2ccccc2c(=O)[nH]1)Nc1ccccc1	1.7	/
CCc1ccc2c(c1)c1nc(C)sc1n2C	-0.82	-0.15
O=S(=O)(Nc1cccc(Br)c1)c1ccc(-c2cnc(C3CC3)o2)cc1	0.91	/
CCCCN1C(=O)C2(/C(=C(/O)c3ccc(OC)cc3)C(=O)C(=O)N2CCOC)c2ccccc21 (stereo not drawn)	-0.21	0.71
O=C(CCCN1C(=O)c2cccnc2C1=O)NCC1COc2ccccc2O1 (stereo not drawn)	/	-0.54
Cc1n[nH]c(C)c1CCCCOc1ccc(Cl)cc1	0.01	0.67
COc1ccc(C(O)(Cc2ccccc2)C(CN2CCOCC2)c2ccccc2)cc1 (stereo not drawn)	2.1	-1
C=CCn1c(Sc2nc(C)cs2)nc2c1c(=O)[nH]c(=O)n2C	0.43	-1.1
CC(=O)Oc1ccc(N2C(=O)c3cccnc3C2=O)cc1	0.61	-1.9
COc1ccc(NS(=O)(=O)c2ccc(C)cc2)c([N+](=O)[O-])c1	/	-0.13
C=CCc1ccccc1OCc1nc2ccccc2n1C	2.9	-1.3

Following part.
SMILES	HIV TAR-Tat	CDC25B CDK2 inh
CC12CN3CC(C)(CN(C1)C3c1ccc(O)c(O)c1)C2 (stereo not drawn)	1.6	-1.6
CCCc1cc(=O)n2[nH]c(-c3ccc(C)cc3)nc2n1	1.8	-0.23
CC(=O)Oc1ccc2nc(-c3ccco3)oc(=O)c2c1	-0.23	-0.13
CN(C(=O)c1cc(S(=O)(=O)N2CCOCC2)cn1C)C1CCCCC1	2.1	/
CC1Cc2cc(S(=O)(=O)N(C)CC(=O)NC3CCCCC3)ccc2N1C(=O)C1CC1 (stereo not drawn)	1.1	/
CCOc1ccc(CCN=C2NS(=O)(=O)C(c3ccc(OC)cc3)=C2C)cc1	-0.58	-2.9
CC(C)CC(NS(=O)(=O)c1ccc2c(c1)CCCC(=O)N2)C(=O)N1CCOCC1 (stereo not drawn)	0.24	/
Cn1cc(Br)c(C(=O)Nc2nc3ccc4ccccc4c3s2)n1	2.5	-2.3
CCn1c(C2CC(=O)N(CCOC)C2)nc2ccccc21 (stereo not drawn)	-1	-0.55
CCC(CC)NC(=O)C1c2ccccc2Oc2ccccc21	0.29	-2.7
Cc1cccc(-c2nc3c4ccccc4nc(NCCN4CCOCC4)n3n2)c1	0.23	-1.8
O=C(Nc1nnc(C23CC4CC(CC(C4)C2)C3)s1)c1ccccc1	/	2.5
CCCCN(CCCC)C(=O)c1cc(S(=O)(=O)N2CCCCC2)c[nH]1	2.3	/
COc1ccc(OCC(=O)Nc2nc3ccc(Cl)cc3o2)cc1	0.94	/
O=C1c2[nH]nc(-c3ccccc3O)c2C(c2ccc(F)cc2)N1Cc1ccco1 (stereo not drawn)	1.5	1.7
O=S(=O)(Nc1ccc2c(c1)N(S(=O)(=O)c1ccccc1)CCC2)c1ccc(Cl)cc1	2.3	/
O=C(CSc1nc2c(c(=O)n1Cc1ccccc1)SCC2)NC1CCCC1	0.91	/
CCOC(=O)C1CCN(C(=O)C2=C(C)C(=O)OC23CCCCC3)CC1	0.84	/
Cc1c(Br)c(C(F)(F)F)nn1CC(=O)N1CCCCC1	2.3	/
CCOCCOC(=O)C1=C(C)NC2=C(C(=O)CC(c3cccs3)C2)C1c1ccc(F)cc1 (stereo not drawn)	-0.16	-1.8
COc1ccc(NC(=O)N2Cc3cccn3-c3ccccc32)cc1OC	2.4	/
Cc1ccc2[nH]c(C)c(CN(C)C3CCCCC3)c(=O)c2c1	/	-2.9
Cc1cc(C(F)(F)F)nc2c(-c3noc(-c4ccccc4)n3)cnn12	/	3.6
O=C1CC(c2nc3ccccc3n2Cc2ccccc2F)CN1c1ccccc1F (stereo not drawn)	2.6	-2.4
COC(=O)c1cc2sccc2n1Cc1ccc(Cl)cc1	1.2	-0.56

The listing continues:
SMILES	HIV TAR-Tat	CDC25B CDK2 inh
Cc1ccc(C)n1-c1nnc(N2CCC(C(=O)NCCCN3CC(C)CC(C)C3)CC2)s1 (stereo not drawn)	1.2	-0.29
CCOC(=O)c1cc(C(=O)OC)c(C)nc1NCc1ccc2c(c1)OCO2	/	-0.19
CC(C)(C)CN/C(C#N)=C(/C#N)NCc1cccc(Cl)c1	/	-1.2
COc1ccccc1OCCSc1nc(-c2ccccc2C)nc2cc(=O)[nH]n12	1.7	/
O=C(COCc1cc(-c2ccco2)on1)Nc1c(F)cc(F)cc1Br	-1.6	/
CCN1CCN(c2nc(N)c([N+](=O)[O-])c(N3CC(C)CC(C)C3)n2)CC1 (stereo not drawn)	1.1	/
COc1ccc(CNc2ncnc3onc(-c4ccc(Cl)cc4)c23)cc1	0.92	1.9
Cc1ccc(CNc2nc(-c3ccco3)nn2S(=O)(=O)c2ccc(C)cc2)cc1	-0.08	1.3
CCOc1ccccc1OCc1nn2c(C(C)(C)C)nnc2s1	-0.81	0.02
CC1(C)CC(=O)C2=C(C1)Nc1ccccc1NC2c1ccc(F)c(F)c1 (stereo not drawn)	/	-1.9
Cc1ccc(C2=NS(=O)(=O)N(C)C(C(=O)NC(C)C)=C2)cc1	1.2	-1.4
COC(=O)c1cnc(N(C)C2CCCCC2)c2ccccc12	0.33	/
CCCCN1C=C(OC(=O)c2ccc(Br)cc2)c2ccccc2S1(=O)=O	1.3	1.1
CCCn1c(=O)c2cc(Cl)ccc2n2c(=O)[nH]nc12	1.2	0.08
CS(=O)(=O)c1ccc2nc(NC(=O)c3cc(-c4ccc5c(c4)OCCO5)on3)sc2c1	1.2	-0.6
CC1CC(C)CN(S(=O)(=O)c2ccc3c(c2)oc(=O)n3CC(=O)N2CCN(C)CC2)C1 (stereo not drawn)	-0.37	-1
O=C1/C(=C\C2CC=CCC2)Cc2ccccc21 (stereo not drawn)	/	0.15
COC(=O)c1sc2ccccc2c1S(=O)(=O)N1CCN(c2ccc(Cl)cc2)CC1	-2.3	/
O=C1c2nccnc2C(=O)N1c1ccc(Cl)cc1	/	0.8
CCc1cc2c(=O)c(-c3nc4ccccc4n3C)coc2c(CN(C)C)c1O	1.4	1.4
O=C(NCc1csc(-c2cccs2)n1)[C@H]1CSCN1C(=O)Cc1ccc(Cl)cc1	1.2	/
Cc1cc2n(n1)C(c1cc(C(C)(C)C)c(O)cc1O)Nc1ccccc1-2 (stereo not drawn)	-1.6	-0.58
O=C(CN1CCCCC1)NNC(=O)Cn1nnc(N2CCCC2)n1	/	-1.6
Cn1nc(C(=O)NC2CCCc3ccccc32)c2c1-c1ccccc1S(=O)(=O)C2 (stereo not drawn)	2	0.22
CCOc1ccccc1-c1noc(CSc2nnc(-c3ccncc3)n2-c2cccc(C)c2)n1	1.5	-0.53

Two records picked at random from the list so far, as already listed:
SMILES	HIV TAR-Tat	CDC25B CDK2 inh
COc1ccc(CNc2ncnc3onc(-c4ccc(Cl)cc4)c23)cc1	0.92	1.9
O=C1/C(=C\C2CC=CCC2)Cc2ccccc21 (stereo not drawn)	/	0.15

Further records:
SMILES	HIV TAR-Tat	CDC25B CDK2 inh
O=C(NCc1ccco1)c1ccc2c(c1)nc1n2CCOC1	0.65	/
N/C(COc1ccc(C2=NCCS2)cc1)=N\O	/	-1.5
NC(=O)C1CCN(C(=O)NCc2noc3ccccc23)CC1	0.09	/
CCN(CC)C(=O)Cn1c(=O)cc(C)c2c(C)nn(C)c21	-0.67	/
CCOC(=O)N1CCC(NS(=O)(=O)c2ccc3[nH]c4c(c3c2)CCCC4)CC1	-2.8	/
COc1cc(C(=O)NC2CCCNC2)cc(OC)c1OC (stereo not drawn)	1.3	/
Cc1ccc(CN2C(=O)CSC2c2cccc(Br)c2)cc1 (stereo not drawn)	-0.5	-0.45
O=C(Nc1cccc(Br)c1)Nc1nnc(N2CCCC2)s1	1.2	-1.3
COc1cccc2c1NC1CC(C)CCC1C2(C)C (stereo not drawn)	/	-2.2
O=C1c2ccccc2C(=O)N1C1C(=O)N(c2cccc(C(F)(F)F)c2)C1c1ccc(F)cc1 (stereo not drawn)	/	-3.2
O=C1CN(Cc2ccc(F)cc2Cl)S(=O)(=O)c2ccccc2N1Cc1cccc(F)c1	1.8	/
O=C(O)C1CCCN1C(=O)c1cccs1 (stereo not drawn)	/	-0.98
C[C@@H]1C[C@H](C)CN([C@H]2CS(=O)(=O)C[C@@H]2S(=O)(=O)c2ccccc2)C1	0.39	-2.1
CC(=O)O/N=C(\C)c1nccs1	/	-4
C=CCSc1nc2c(c(=O)[nH]1)CCCC2	3	-1.3

Of the compounds above, these contain two or more sulfur atoms.
SMILES	HIV TAR-Tat	CDC25B CDK2 inh
O=C(O)CCCSc1nc2ccccc2s1	/	-2
Cc1ccc(C)c(NS(=O)(=O)c2cc(-c3csc(C)n3)ccc2C)c1	2.1	/
O=C(CSc1ncnc2ccccc12)Nc1nccs1	/	-3.1
COCCN(Cc1cccs1)S(=O)(=O)c1ccc2c(c1)NC(=O)CCS2	0.66	/
CCCCCc1nnc(NC(=O)Cc2csc(C)n2)s1	-0.38	-0.85
Cc1cc(S(=O)(=O)NCc2nn(-c3ccccc3)nc2C)c(C)s1	/	-2
C=CCn1c(Sc2nc(C)cs2)nc2c1c(=O)[nH]c(=O)n2C	0.43	-1.1
O=S(=O)(Nc1ccc2c(c1)N(S(=O)(=O)c1ccccc1)CCC2)c1ccc(Cl)cc1	2.3	/
O=C(CSc1nc2c(c(=O)n1Cc1ccccc1)SCC2)NC1CCCC1	0.91	/
CS(=O)(=O)c1ccc2nc(NC(=O)c3cc(-c4ccc5c(c4)OCCO5)on3)sc2c1	1.2	-0.6
COC(=O)c1sc2ccccc2c1S(=O)(=O)N1CCN(c2ccc(Cl)cc2)CC1	-2.3	/
O=C(NCc1csc(-c2cccs2)n1)[C@H]1CSCN1C(=O)Cc1ccc(Cl)cc1	1.2	/
C[C@@H]1C[C@H](C)CN([C@H]2CS(=O)(=O)C[C@@H]2S(=O)(=O)c2ccccc2)C1	0.39	-2.1
